NPYLR7 agonist: mosquito NPYLR7 agonism; hit rate 0.15% among 270,000; AID 1259423; activation, % at 10 µM; HEK293T NPYLR7/Galpha15, GCaMP6s calcium fluorescence; in the data active means activation above about 40%;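 further: 0% = vehicle and 100% = reference agonist at the receptor; some compounds past the cut are filed as inactive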
NPYLR7 agonist max-min: further read-out of NPYLR7 agonist, marked with its call; activation, %; measured here: Max-Min RFU normalised activation; some inactives read as strong as hits;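 span of the calcium signal over five minutes; 0% = vehicle and 100% = native peptide agonist; compound fluorescence can raise it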
An asterisk follows results filed as active; & = joins results of further samples. An excerpt; rates above refer to the full screens.

Values run as follows: NPYLR7 agonist	NPYLR7 agonist max-min
COCC(=O)Nc1ccccc1-c1cccc(NC(C)=O)c1
→ -4	-4
CCN(C(=O)c1cc2cccnc2n(Cc2ccc(F)cc2)c1=O)C1CCCCC1
→ 13	6
Cc1ccc(/C=C2\CNC/C(=C\c3ccc(C)cc3)C2=O)cc1
→ 4	1
Nc1ccc(C(=O)O)cc1
→ -13&-14	11&-17
c1ccc2c(CC3CCCN3)cccc2c1 (stereo not drawn)
→ 31	18
CC1CCCCN1S(=O)(=O)NCc1ccc(F)cc1 (stereo not drawn)
→ -2	-2
O=C1c2ccccc2C(=O)N1CCCCN(C(=O)c1ccc(-c2ccccc2)cc1)c1ccc(Cl)cc1
→ -11	-19
Cc1noc(C)c1S(=O)(=O)N1CCC(c2nc3ccccc3o2)CC1
→ 3	1
CC(C)n1cc(Cn2cnc(-c3ccccc3)c2-c2ccsc2)cn1
→ -1	9
CCN(CC)CCCC(C)NC(=O)C1CCN(c2nc(Cc3ccc(F)cc3)ns2)CC1 (stereo not drawn)
→ 16	15
CCOC(=O)c1nn(-c2ccc(C)cc2)c(=O)cc1OCC(=O)Nc1cc(C)ccc1OC
→ 8	5
COc1cc(OC)cc(C2SCCN2C(=O)Nc2ccc(C)cc2)c1 (stereo not drawn)
→ -3	5
COc1ccc(-c2c3c(nc4sc(C(=O)Nc5ccccc5F)c(N)c24)CC(C)(C)CC3=O)cc1
→ -3	-6
COCCn1c(C)cc(/C=N\n2c(C)cc(C)c(C#N)c2=O)c1C
→ 9	9
CCCc1cc(CNC(=O)c2ccc(NC[C@H]3C[C@H]4C=C[C@H]3C43CC3)nc2)on1
→ 6	0
CC(C)c1ocnc1C(=O)N1CCOC(c2nc(C(C)(C)C)n[nH]2)C1 (stereo not drawn)
→ -4&1	-4&0
C=CCNC(=O)c1ccccc1N1CCC(NC(=O)c2ccc(C(F)(F)F)cc2)CC1
→ 1	13
CC(C)N=c1scc(-c2c[nH]c3ccccc23)n1N=Cc1c[nH]c2ccccc12
→ 2	3
O=C(NCCCn1ccc2ccccc21)c1ccc(OC(F)F)cc1
→ 1	5
COCCCN(CC(=O)Nc1cc(C(C)(C)C)nn1-c1ccc(C)cc1C)C(=O)c1ccc(Br)cc1
→ 13	18
Cc1nccn1-c1ccc(CNC(=O)NC(C)c2cccc(F)c2)cn1 (stereo not drawn)
→ 3	-12
O=c1ccc(-c2ccco2)nn1CCNS(=O)(=O)c1ccc(OC(F)(F)F)cc1
→ 0	-1
CCN1C(=S)NC(c2cccc(NS(=O)(=O)c3ccc(C)cc3)c2)C(C(=O)OC(C)C)=C1C (stereo not drawn)
→ -4	4
Nc1nn(S(=O)(=O)c2ccc(Cl)cc2)cc1-c1ccc(Cl)cc1
→ 3	1
Cc1ccc(OCCN(C)C(=O)CC2C(=O)NCCN2Cc2cccc(F)c2F)cc1 (stereo not drawn)
→ 14	5
CCCNC(=O)N1CCC2(CC1)Nc1ccccc1C(=O)N2Cc1ccccc1
→ 0	13
COc1ccc(CN2C(=O)C3C4C=CC(C4)C3C2=O)cc1 (stereo not drawn)
→ -11	-15
COC(=O)c1cc(C=C(C#N)c2ccccn2)oc1C
→ -1	-5
C#Cc1ccc(NC(=O)C2(C)CCN2C(=O)Cc2ccc(C(C)(C)C)cc2)cc1 (stereo not drawn)
→ 7	3
O=C(CC(c1ccccc1Cl)c1c[nH]c2ccccc12)N1CCN(C(c2ccccc2)c2ccccc2)CC1 (stereo not drawn)
→ -4	8

Three structures from above, sorted by count of non-hydrogen atoms, highest first:
Values run as follows: NPYLR7 agonist	NPYLR7 agonist max-min
CCOC(=O)c1nn(-c2ccc(C)cc2)c(=O)cc1OCC(=O)Nc1cc(C)ccc1OC
→ 8	5
C=CCNC(=O)c1ccccc1N1CCC(NC(=O)c2ccc(C(F)(F)F)cc2)CC1
→ 1	13
CC(C)c1ocnc1C(=O)N1CCOC(c2nc(C(C)(C)C)n[nH]2)C1 (stereo not drawn)
→ -4&1	-4&0

(further entries)
Values run as follows: NPYLR7 agonist	NPYLR7 agonist max-min
Cc1ccc(C2=CCN(C(=O)Nc3cc(C)on3)CC2)cc1
→ -6	-10
O=c1[nH]c(SC2C=CCCC2)nc2sc3c(c12)CCCC3 (stereo not drawn)
→ 7	7
COc1ccc(CCNC(=O)CN2CN(c3ccccc3)C3(CCN(C(=O)c4ccccc4F)CC3)C2=O)cc1OC
→ 20	20
Cn1c(=O)c2c(N3CCc4ccccc43)ccnc2n(C)c1=O
→ 10	9
CCOC(=O)N1CCN([C@H]2[C@H](OC)C[C@@H]3C[C@H](COC)OC[C@]32O)CC1
→ 2	3
CCOC(=O)C1(CC2CCCCO2)CCN(S(=O)(=O)c2cc3ccccc3s2)CC1 (stereo not drawn)
→ 22	10
Cc1ccnc(NCCNC(=O)c2ccc(C)c(NC(=O)C3CC3)c2)c1
→ 3	4
COc1ccccc1-c1nc2ccc(Br)cn2c1NC1CCCCC1
→ 3&28	4&30
CCOc1cccc(N2CCN(C(=O)C3CC3)C(C)C2=O)c1 (stereo not drawn)
→ 21	30
Cn1ncc2c1CCCC2NCc1ccc(N2CCOCC2)cc1 (stereo not drawn)
→ 10	7
CCN1CCN(C2=C(c3c(-c4ccccc4)[nH]n(-c4ccccc4)c3=O)C(=O)N(Cc3ccc(F)cc3)C2=O)CC1
→ 3	16
Cc1nc2ccccc2n1CCNc1nccnc1C#N
→ 1	-1
CCOC(=O)c1cc(-c2ccc(N3CCN(C(=O)C(OC(C)=O)c4ccccc4)CC3)cc2)n(-c2cccc(F)c2)n1 (stereo not drawn)
→ 29	20
COc1ccc(CN(C(=O)c2ccco2)C(C)c2ccccc2)cc1OCc1nc(CO)cs1 (stereo not drawn)
→ 17	18
Cc1cc(NC(=O)C2C3CC4OC(=O)C2C4C3)ccc1Br (stereo not drawn)
→ 4	1
O=c1cc(CN2CCCc3ccc(C(F)(F)F)cc32)nc2sccn12
→ -2	0
CN1C(=O)CC(N2CCN(S(=O)(=O)c3ccc(F)cc3)CC2)C1=O (stereo not drawn)
→ -3	4
Cc1cc(C)n(CCNc2nc3c(C)cc(Cl)cc3s2)n1
→ -2	-4
CCC(=O)OCCN1CCN(CCCCN(C(=O)CC)c2ccc(C3CCCC3)cc2)CC1
→ 5	2
COc1cccc(CNC2CCN(c3ccc(C(=O)Nc4ccccc4)cn3)C2)c1 (stereo not drawn)
→ -10	-13
COc1ccc(C2CC(c3ccco3)=Nc3ncnn32)cc1OC (stereo not drawn)
→ 24	16
COc1ccccc1CN(Cc1ccco1)CC(O)COc1ccccc1C (stereo not drawn)
→ 30	35
c1ccc(Sc2ncnc3c2oc2ccccc23)nc1
→ 4	0
O=C(NCCCn1nc(-c2ccccc2)ccc1=O)c1ccc(F)cc1
→ -1	-2
COCCO[C@H]1[C@H](NC(=O)C(C)C)c2ccccc2C12CCN(Cc1c(C)nn(C)c1Cl)CC2
→ 8	0
O=C(Nc1ccc(N2CCCC2)cc1)c1cc(N2C(=O)CCS2(=O)=O)ccc1Cl
→ -8	-11
Cc1c(C(=O)Nc2cccc(Cl)c2)oc2ccccc12
→ 0	4
COc1ccc(CN2C(=O)N(C)C3(CCN(Cc4cccn4-c4ccccn4)CC3)C2=O)cc1
→ 13	-3
CC(C)c1nc(C2CC(=O)N(C3CCCC3)C2)n(-c2ccc3c(c2)OCO3)n1 (stereo not drawn)
→ 4	1
C#CCn1c(O)c(N=NC(=O)CNC(=O)c2ccc(F)cc2)c2ccccc21
→ -3	-8
CCOC(=O)Cn1c(=O)c2c(nc3n(-c4ccc(Br)cc4)c(C)c(C)n23)n(C)c1=O
→ 1	-2
O=C(CSc1nc(=O)n(Cc2ccncc2)c2c1CCCC2)Nc1cccc2ccccc12
→ -2	-5
CC(C)CCCC(C)NC(=O)Cc1csc(-c2ccccn2)n1 (stereo not drawn)
→ -4&5	-3&12
COc1cc(NC(=O)c2nn(C)cc2[N+](=O)[O-])cc(OC)c1OC
→ -4	-11
COCc1cc(C)nc(N/N=C\c2cc([N+](=O)[O-])ccc2O)c1C#N
→ 1	9
NC(COCc1ccccc1)c1csc(Nc2ccc(C(F)(F)F)cn2)n1 (stereo not drawn)
→ -7	-12
CC(=O)N(N=C1Sc2ccccc2C1=O)c1ccccc1I
→ -5	-7
CCOC(=O)CCCCCC(=O)N1CCc2c([nH]c3ccc(OC)cc23)C1c1ccc(OCc2ccccc2)cc1 (stereo not drawn)
→ 21	4
CCC(C)N(CC(=O)N(Cc1ccc(F)cc1)Cc1cccs1)C(=O)c1ccc(Cl)c(Cl)c1 (stereo not drawn)
→ 9	13
COc1ccc(-n2ncc(Oc3ccc4c(c3)CCC4)c(Nc3cccc(C(=O)NCC4CCCO4)c3)c2=O)cc1 (stereo not drawn)
→ 2	4
COc1ccc(NC(=O)CSc2nc(=O)n(CCCN(C)C)c3c2CCC3)cc1
→ -3	-7
CNCCOc1cccc(OC(C)C)c1
→ 8	8
CCc1nc2ccc(C(=O)N(C)Cc3ccccc3)cn2c1N(C)Cc1ccc(Cl)cc1
→ 6	25
CSc1ccccc1NC(=O)C1(C)CCN1C(=O)CC1CCCC1 (stereo not drawn)
→ 5	1
Cc1ccccc1-c1nc(CN(CC2CCC(=O)N2)C(C)C)c(C)o1 (stereo not drawn)
→ -2	-3
CCCn1cc(C(=O)N2CCNCC2C(=O)N2CCCC2)c(C)n1 (stereo not drawn)
→ 1	-4
COc1cccc(C(=O)NC(=NCCN(C)C)OC(C)C)c1
→ 10	18
Cc1ccc(CN(Cc2ccccc2)C(=O)CN(CCCN2CCOCC2)C(=O)CCc2ccccc2)o1
→ 2	12
Cn1cc(C(=O)NCCOC2CCCCC2)ccc1=O
→ 19	9
Fc1ccc(N=c2oc3ccc4ccccc4c3cc2-c2nc3ccccc3[nH]2)cc1
→ 0	-4
C/C(=N/NC(=O)Cn1cnc([N+](=O)[O-])n1)c1ccccc1
→ -7	-13
O=C(O)C1C2CCC(O2)C1C(=O)Nc1ccccc1-c1ccccc1 (stereo not drawn)
→ -2	-2
CC(C)Cc1ccc(CN2CCCC(NC(=O)Cc3cccnc3)C2)cc1 (stereo not drawn)
→ -3	-4
Cc1[nH]n(-c2ccccc2)c(=O)c1/C=N\NC(=O)Cc1ccccc1
→ -4	-11
COc1ccc(F)cc1Oc1ccc2c(-c3ccccn3)noc2n1
→ 9	6
CCCN(CC(=O)Nc1cc(-c2ccccc2)nn1-c1ccccc1Cl)C(=O)C(C)(C)CCl
→ -3	-2
O=C(NCC1CCCO1)c1ccc(Br)o1 (stereo not drawn)
→ -1	-1
O=C(c1ccc[nH]1)N1CCC(CO)(Cc2ccccc2Cl)CC1
→ 0	-2
COc1cccc2sc(NC(=O)C3=NN(C)C(=O)CC3)nc12
→ 8	8
COCC(=O)N1CCN(c2nc(-c3ccccc3)nc(C)c2Cc2ccccc2F)CC1
→ -2	6

(further entries)
Values run as follows: NPYLR7 agonist	NPYLR7 agonist max-min
CC(C)(C)c1ccc(-c2ccnc(N3CCN(S(=O)(=O)c4ccccc4)CC3)n2)cc1
→ -7	-10
CSc1nnc(C)c(=O)n1COC(=O)c1cccc(Br)c1
→ 0	1
COCc1cc(CN2CC3(CCNCC3)CC2C(=O)O)ccc1OC (stereo not drawn)
→ 12	10
O=C(Nc1ccc(C2SCC(=O)N2c2ccc(C(F)(F)F)cc2)cc1)c1ccc(F)cc1 (stereo not drawn)
→ -10	6
CCc1[nH]n(-c2ccc(Cl)cc2)c(=O)c1C1=C([n+]2cccc(C)c2)C(=O)N(C(C)C)C1=O
→ 2	3
COc1ccc(S(N)(=O)=O)cc1C(=O)NCCc1c(C)cc(C(C)(C)C)cc1C
→ 9	7
O=C(c1ccc2c(c1)OCO2)N1CC[C@@H](N2CCN(c3ccccc3F)CC2)[C@H](O)C1
→ 2	0
O=C1CCCN1CCC1CN(Cc2ccon2)c2ccccc21 (stereo not drawn)
→ -1	-1
CCn1nnnc1SCC(N)=O
→ 14	4
COc1ccc2nc(N(CCCN(C)C)C(=O)c3cc(C)no3)sc2c1
→ 0	9
CCOC(=O)c1c(NC(=O)c2ccccc2)sc(C(=O)Nc2ccccc2C)c1C
→ -6	-11
Cc1ccccc1OCC(=O)N1CCc2c(sc3ncnc(N)c23)C1
→ 6	4
C=CCN(Cc1ccccc1C(=O)OC)Cc1cccn1Cc1cccc(C(F)(F)F)c1
→ -2	-2
CCC(C)NC(=O)C1=C(C)C(=O)OC12CCCCC2 (stereo not drawn)
→ 4	3
CC(=O)c1c(C)c2c(n1CCN(C)C)CCCC2
→ 3	1
COc1ccc(OC)c(CN2CCc3[nH]cnc3C2c2cnn(C)c2C)c1 (stereo not drawn)
→ -1	4
COCCCn1ccnc1-c1cnc(OC)nc1
→ 21	13
Cc1cc(=O)[nH]c(-n2nc(C3CC3)cc2NC(=O)C(C)(C)Oc2ccc(Cl)cc2)n1
→ 2	0
CC(C)(C)c1cc2nc(-c3ccc(F)cc3)cc(C(=O)O)n2n1
→ -6	-1
CC(=O)c1ccc(S(=O)(=O)NCCn2ncccc2=O)cc1
→ 2	2
CCc1nnc(NC(=O)C2CC2)s1
→ -5	-11
C=CCNC(=O)C1C(=O)NC2(C)CC1c1ccccc1O2 (stereo not drawn)
→ 37	57
CN(C)CC1(O)CCCN(C(=O)c2ccc(-n3cccc3)cc2)CC1 (stereo not drawn)
→ 8	3
Cc1nn(C(C)C)c(C)c1NC(=O)Cc1cc(Cl)ccc1Cl
→ 5	5
CC(C)(C)c1cc(NC(=O)c2cccc([N+](=O)[O-])c2)n(-c2ccc([N+](=O)[O-])cc2)n1
→ 22	28

Two compounds picked at random from the list so far, as already listed:
Values run as follows: NPYLR7 agonist	NPYLR7 agonist max-min
C=CCN(Cc1ccccc1C(=O)OC)Cc1cccn1Cc1cccc(C(F)(F)F)c1
→ -2	-2
CC(=O)c1c(C)c2c(n1CCN(C)C)CCCC2
→ 3	1

Profiles from above. Order of screens: NPYLR7 agonist	NPYLR7 agonist max-min
Entry for `CC(=O)c1ccc(S(=O)(=O)NCCn2ncccc2=O)cc1` : 2	2
Entry for `CC(=O)c1c(C)c2c(n1CCN(C)C)CCCC2` : 3	1
Entry for `C=CCNC(=O)C1C(=O)NC2(C)CC1c1ccccc1O2` (stereo not drawn) : 37	57

Assay outcomes deposited in PubChem by Fisher Drug Discovery Resource Center.
